Choline anaer gr – blocks anaerobic gram-negative growth on choline; calls only; 0.2% of 55,000 active; AID 1963822; Gram-negative bacterium anaerobic choline minimal medium, absorbance growth; hits give low values; many inactives read as strong as hits in the columns shown;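 active means growth z-score on choline under -2 at 7 or 20 h with little or no fall on glycerol, limits in tiers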;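 further: stock transfer was 300 nL into about 50 µL; the organism is E. coli; final concentration not given here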
Choline anaer gr early – also measured in Choline anaer gr; calls as there; z-score; measured here: choline growth z-score, timepoint 1;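 score of optical density at 7 h as mean of two plates; lower means less growth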
Numbers without * were called inactive; i = inactive; & = joins results of further samples. The list is partial (hit frequency here may not be typical).

Preview:
Each structure is followed by: Choline anaer gr | Choline anaer gr early
> O=C(CN1C(=O)CC(c2ccc(F)cc2)=Nc2cccnc21)NCCc1ccc(Cl)cc1
    i | 0.46
> Cc1c(C(=O)NC2CCCC2)nnn1-c1ccc2noc(-c3ccc(Br)cc3)c2c1
    i | -0.29
> CCOC(=O)c1c(C)[nH]c(NC(=O)N(CC)CC)c1C
    i | -0.34
> COc1cccc(Cc2nc(-c3ccc4c(c3)Sc3ccccc3C(=O)N4C)no2)c1
    i | 1.2
> Cc1cc(C)c(S(=O)(=O)N2CCC[C@@H]2C(=O)NCCc2csc(C)n2)c(C)c1
    i | 0.02

The whole of this part, from the first entry:
Each structure is followed by: Choline anaer gr | Choline anaer gr early
> O=C(CN1C(=O)CC(c2ccc(F)cc2)=Nc2cccnc21)NCCc1ccc(Cl)cc1
    i | 0.46
> Cc1c(C(=O)NC2CCCC2)nnn1-c1ccc2noc(-c3ccc(Br)cc3)c2c1
    i | -0.29
> CCOC(=O)c1c(C)[nH]c(NC(=O)N(CC)CC)c1C
    i | -0.34
> COc1cccc(Cc2nc(-c3ccc4c(c3)Sc3ccccc3C(=O)N4C)no2)c1
    i | 1.2
> Cc1cc(C)c(S(=O)(=O)N2CCC[C@@H]2C(=O)NCCc2csc(C)n2)c(C)c1
    i | 0.02
> Cc1cc(C)cc(NC(=O)CCc2nc(CSc3nc4ccccc4s3)no2)c1
    i | 1.6
> CC(C)OCCCNC(=O)CCc1nc2sc3c(c2c(=O)[nH]1)CCCCC3
    i | -0.61
> O=C(NCC1CCCO1)c1ccc(CSc2nc3cccnc3n2Cc2ccccc2)cc1 (stereo unspecified)
    i | -0.58
> Cc1nn(C)c(C)c1CNC(=O)CS(=O)Cc1cnn(-c2ccccc2)c1-n1cccc1 (stereo unspecified)
    i | -0.1
> Cc1c(C(=O)Nc2ccc(F)c(Cl)c2)sc2nc[nH]c(=O)c12
    i | 0.43
> CCOC(=O)c1nc2ccccc2nc1C
    i | 0.43
> O=C(c1ccc(Cn2c(=O)c(=O)n(Cc3ccc(F)cc3Cl)c3cccnc32)cc1)N1CCOCC1
    i | -0.66
> CCCS(=O)(=O)c1nc2ccc(NS(=O)(=O)c3ccc(OC)c(OC)c3)cc2s1
    i | -1.7
> O=C(CN1C(=O)COc2ccc(C(=O)N3CCCC3)cc21)Nc1ccccn1
    i | -0.16
> Cc1ccc(C)c(NC(=O)Cn2c(=O)n(CCCCC(=O)NC(C)C)c(=O)c3ccccc32)c1
    i | -0.42
> Fc1ccc(Nc2ncnc3c2nc2n3CCCCC2)c(F)c1
    i | -1.1
> Cc1cccc(-c2nc3c4ccccc4n(CC(=O)c4cc(C)ccc4C)c(=O)n3n2)c1
    i | 0.68
> O=C1COc2ccc(S(=O)(=O)N3CCCC(C(=O)Nc4cccc(Cl)c4)C3)cc2N1 (stereo unspecified)
    i | 0.28
> CCNC(=O)CN1C(=O)C2CCCCN2c2ccc(S(=O)(=O)N3CCCC3)cc21 (stereo unspecified)
    i | -1.3
> CC1Oc2ccc(-c3csc(NC(=O)C(C)(C)C)n3)cc2N(C)C1=O (stereo unspecified)
    i | -0.13
> COc1cccc(CN2C(=O)c3cc4occc4n3CC2(C)C(=O)NC2CCC(C)CC2)c1 (stereo unspecified)
    i | 1.1
> COc1ccc(N2CCN(c3cc(C(=O)O)c4cc(NC(=O)c5ccc(C)cc5)ccc4n3)CC2)cc1
    i | 0.17
> Cn1nc(-c2nc(-c3ccccc3)no2)c2c1CCN(S(C)(=O)=O)C2
    i | -0.71
> O=S(=O)(c1ccc(F)cc1F)N1CCC2(CC1)Nc1ccc(Cl)cc1-n1cccc12
    i | -0.22
> COc1cccc(NS(=O)(=O)c2ccc3c(c2)c(=O)n(CCC(=O)N2CCCC2)c(=O)n3C)c1
    i | -0.38
> CCCn1c(C2CCN(S(=O)(=O)CC)C2)nc2cccnc21 (stereo unspecified)
    i | 0.23
> CC(=O)N1CCN(Cc2nc3cc(NC(=O)C4CCCCC4)ccc3n2C)CC1
    i | -0.32
> Cn1cc2c(N3CCSCC3)nc(C(=O)N3CCN(C4CCCC4)CC3)nc2n1
    i | 0.66
> CC(C)c1nn2c(S(=O)(=O)NC3CCCC3)c(C(C)C)nc2s1
    i | -2.1
> Cc1ccc2[nH]cc(CCNC(=O)Cn3c(=O)c(=O)n(Cc4ccc(Cl)cc4)c4ccccc43)c2c1
    i | -0.14

3 successive records from above:
Each structure is followed by: Choline anaer gr | Choline anaer gr early
> CCCS(=O)(=O)c1nc2ccc(NS(=O)(=O)c3ccc(OC)c(OC)c3)cc2s1
    i | -1.7
> O=C(CN1C(=O)COc2ccc(C(=O)N3CCCC3)cc21)Nc1ccccn1
    i | -0.16
> Cc1ccc(C)c(NC(=O)Cn2c(=O)n(CCCCC(=O)NC(C)C)c(=O)c3ccccc32)c1
    i | -0.42

Other records.
Each structure is followed by: Choline anaer gr | Choline anaer gr early
> Cc1cccc(C)c1NC(=O)c1ccccc1C(=O)O
    i | 0.13
> Cc1cccc(C)c1OCCN1C(=O)C(C)CNc2ccccc21 (stereo unspecified)
    i | 0.3
> CC(C)NC(=O)CC(c1ccc(F)cc1)N1Cc2ccccc2C1=O (stereo unspecified)
    i | 0.47
> CN1CCN(c2ncnc3c2cnn3-c2ccc(F)cc2)CC1
    i | -0.47
> Cc1csc(-c2cc(S(=O)(=O)Nc3cc(C)nc4ccccc34)c(C)s2)n1
    i | 0.19
> O=C(NC1CCCC1)C1CCN(c2ccc(Sc3ccc(Br)cc3)nn2)CC1
    i | -0.37
> CC1CCCN(c2ccc(-c3noc(CN4CCC5(CC4)OCCO5)n3)cn2)C1 (stereo unspecified)
    i | -0.56
> COc1ccc(C(CNC(=O)C(C)Oc2ccc(C)c(C)c2)N2CCCCC2)cc1 (stereo unspecified)
    i | -0.25
> Cn1c(CN(c2ccc(F)cc2)S(C)(=O)=O)nnc1SCC(=O)Nc1nccs1
    i | 0.17
> O=C(NC1CCS(=O)(=O)C1)c1ccccc1NC(=O)c1nsc2ccccc12 (stereo unspecified)
    i | -0.59
> COc1ccc(N2CCN(C(=O)CN3C(=O)C4CCCCC4C3=O)CC2)cc1 (stereo unspecified)
    i | 0.77
> N=C(N)c1ccc(OCCCCCOc2ccc(C(=N)N)cc2)cc1 (tested in a mixture with another compound)
    i | -0.27
> COc1ccc(OC)c(S(=O)(=O)N(C(=O)c2ccccc2)c2ccc3oc(=O)sc3c2)c1
    i | -0.28
> Cc1cccc(CNC2=NCCNC23CCC(c2ccccc2)CC3)c1 (stereo unspecified)
    i | 1.1
> COc1ccc(CNC(=O)c2ccc(Oc3ccnc(-c4ccc(F)cc4)n3)cc2)cc1
    i | 1.8
> O=S(=O)(c1ccc(Br)cc1)N1CCCC(c2nc(-c3cccc(F)c3)no2)C1 (stereo unspecified)
    i | 1.1
> CN(Cc1cccn1C)C(=O)NC1CCCC1
    i | -0.9
> CCn1c(=O)c2c(C(=O)Nc3ccc(OC)cc3OC)cc(=O)n(CC)c2n(C)c1=O
    i | 1.3
> CC(C)NCC(O)COc1ccccc1-n1cccc1 (stereo unspecified)
    i | -0.24
> O=C(NCc1ccc2c(c1)OCO2)c1ccc(CN2C(=O)C3CCCN3C(=O)c3ccccc32)cc1 (stereo unspecified)
    i | -0.64
> O=C(CSc1nc2c(c(=O)[nH]1)CN(Cc1ccccc1)CC2)Nc1ccc(F)cc1
    i | -0.76
> CCOC(=O)CNC(=O)NCc1ccnc(N(CC)CC)c1
    i | -0.33
> Cn1c(SCc2ccc(F)cc2)nc2ccc(C(=O)NCCc3ccc(S(N)(=O)=O)cc3)cc21
    i | 0.67
> Cc1nn(C(=O)NCCC(C)C)c2ccccc12
    i | -1.1
> Cc1ccc(-c2nc3nc(C)cc(Nc4cccc(O)c4)n3n2)cc1
    i | 0.61
> COc1ccc(CCNc2ncnc3c2oc2ccccc23)cc1OC
    i | -0.59
> CN(C)S(=O)(=O)c1ccc2c(c1)N(CC(=O)N1CCc3ccccc3C1)CCS2
    i | -0.1
> CCNC(=O)N1CCC(OC(C)=O)CC1
    i | 1.3
> O=C(c1ccc(Br)cc1)N1CCN(CCc2ccccn2)CC1
    i | -1.1
> CCOc1ccc(S(=O)(=O)Nc2cc(C(=O)O)ccc2N(CC)Cc2ccccc2)cc1
    i | -1.1
> COc1cccc(NC(=O)/C=C/c2ccc(Cl)cc2)c1
    i | -1
> O=C1C(=O)N(C2CCN(S(=O)(=O)c3ccccc3)CC2)CCN1Cc1cccc(F)c1
    i | -0.33
> CCc1ccc(-n2c(=O)c3cccnc3n2CC(=O)N(CC)c2cccc(C)c2)cc1
    i | 0.56
> COc1ccc(CNC(=O)CCC(=O)N2Cc3cccc(OC)c3Oc3ncccc32)cc1
    i | -1.1
> O=C(CCCN1CCSc2ccccc21)N1CCN(c2ccc(F)cc2)CC1
    i | -1.4
> Cc1ccc(NC(=O)CN2C(=O)CCSc3ccccc32)cc1
    i | 0.66
> O=C(NC1CCCc2ccccc21)C1CCCN(c2ccnc(-c3cccc(F)c3)n2)C1 (stereo unspecified)
    i | 1
> Cc1ccc(C(=O)N2CCC(CC(=O)NCCCN3CCC(N4CCCCC4)CC3)CC2)cc1
    i | 0.05
> Cc1cc(NC(=O)C2=C(O)c3ccccc3S(=O)(=O)N2C)no1
    i | 0.1
> COC(=O)c1sccc1NC(=O)CN1C(=O)C(C)=C(c2ccc(OC)cc2)S1(=O)=O
    i | 2.2
> CC(C)c1noc(-c2ccccc2OCC(=O)NC(C)(C)C)n1
    i | 0.33
> O=C(O)COCCN1CCN(C(c2ccccc2)c2ccc(Cl)cc2)CC1 (stereo unspecified)
    i | 0.96&0.31&-0.65&0.44
> O=C(CCc1nc(CS(=O)(=O)c2ccc(F)cc2)no1)NC1CC1
    i | -0.39
> CCN(CC)CCNC(=O)c1cccc(CN2C(=O)C3CCCN3C(=O)c3ccccc32)c1 (stereo unspecified)
    i | 0.35
> O=C(NC1CCCC1)c1cc2c(s1)CN(C1CCCC1)C2
    i | 0.23
> Cc1ccc(Cl)cc1NC(=O)C1CCn2c(nc3ccccc32)C1 (stereo unspecified)
    i | 0.2
> COc1ccc(OC)c(S(=O)(=O)N2CCN(c3ncnc4c3nnn4-c3ccccc3)CC2)c1
    i | 0.99
> Cc1c(Cl)cccc1NC(=O)CSc1nnc(-c2cccnc2)o1
    i | 0.26
> Cc1ccc(NC(=O)CN2N=C(c3ccccc3)c3ccccc3S2(=O)=O)cc1
    i | 0.56
> COc1ccccc1-n1c(=O)c2c3c(sc2n(Cc2ccccc2F)c1=O)CN(C(C)=O)CC3
    i | 0.16

New compounds follow:
Each structure is followed by: Choline anaer gr | Choline anaer gr early
> COc1ccccc1N1CCN(CCCCNC(=O)c2ccc3ccccc3c2)CC1
    i | 0&0.24
> Cn1c(=O)c(=O)n(C)c2cc(S(=O)(=O)C3CCCCC3)c(NC(=O)c3cccc(Cl)c3)cc21
    i | -1.3
> CC1CCN(S(=O)(=O)c2ccc(CNC(=O)C3(c4ccccc4)CC3)s2)CC1
    i | 0.27
> CN(C1CCCCC1)S(=O)(=O)c1ccc(N2CCCCS2(=O)=O)cc1
    i | -0.7
> Cc1nc(-c2cc(NC(=O)CN3C(=O)COc4ccc(Cl)cc43)c(C)s2)no1
    i | -1.5
> C=CCn1c(SCC(=O)c2ccccc2)nc2sc3c(c2c1=O)CCC3
    i | 0.22
> COc1cc(NC(=O)N2CCN(c3cc(N4CCOCC4)nc(C)n3)CC2)cc(OC)c1
    i | -0.54
> CC(C)(C)c1ccc(CN2C(=O)N(c3cc(F)ccc3F)S(=O)(=O)c3ccccc32)cc1
    i | 0.09
> CC(C)CCNC(=O)N1CCC(N2CCN(Cc3ccccc3)C(=O)C2=O)CC1
    i | 1.4
> CCC(C)(C)NC(=O)C1CCC(=O)N1S(=O)(=O)c1ccc(C)cc1 (stereo unspecified)
    i | 0.14
> CCOC(=O)Cc1c(C)nc2c(-c3ccccc3)c(-c3ccccc3)[nH]n2c1=O
    i | -0.31
> COc1ccc(NC(=O)Nc2nnc(SCC(=O)Nc3cccc(OC)c3)s2)cc1
    i | 1
> O=C(Cn1nc(-c2ccccc2)c2cc(Cl)ccc21)NCc1cccnc1
    i | -0.58
> CCOC(=O)c1cnn(-c2cc(C)nc3c(-c4ccc(C)cc4)c(C(F)(F)F)nn23)c1N
    i | 1.3
> COc1ccc(-c2cc3c(=O)n(CC(=O)NC4CC4)ncn3n2)cc1
    i | 0.91
> Cc1nn(C)c(=O)c2cc(S(=O)(=O)N3CCC(Cc4ccccc4)CC3)cn12
    i | 0.08
> Cc1cc(C2CCCN2C(=O)c2ccccc2F)no1 (stereo unspecified)
    i | -0.31
> Cc1ccc(C)c(S(=O)(=O)N2CCc3cc4ccc(C)cc4nc32)c1
    i | -2
> Cc1sc(NC(=O)c2cccnc2)nc1-c1ccc2c(c1)NC(=O)C(C)O2 (stereo unspecified)
    i | -0.32
> COc1ccc2cc3c(nc2c1)N(C(=O)C(c1ccccc1)c1ccccc1)CC3
    i | 0.48
> CCOC(=O)c1[nH]c(C)c(CCC(=O)N2CCCC(C(=O)NCCN3CCCC3)C2)c1C (stereo unspecified)
    i | -0.95
> CCCNC(=O)N1CCCC1c1cc(C)on1 (stereo unspecified)
    i | 0.51
> CC(=O)Nc1cc2nc3[nH]c(=O)n(C)c(=O)c3nc2cc1C
    i | -0.66
> Cn1ccc2cc(S(=O)(=O)N3CCC(C(=O)NCCc4c[nH]c5ccccc45)CC3)ccc21
    i | -0.08
> CC1=CC(C)(C)N(C(=O)c2ccccc2)c2ccccc21
    i | -0.72
> CCCCOc1ccc(C2C3=C(CC(C)(C)CC3=O)Nc3ccccc3N2C(=O)Cc2ccccc2)cc1 (stereo unspecified)
    i | -0.78
> CC(C)n1cc(S(=O)(=O)N2CCN(c3ccc(Cl)cc3)CC2)c2cccnc21
    i | -0.51
> CC(NC(=O)Nc1ccc(Cl)cc1)c1c(-n2cccc2)sc2c1CCCC2 (stereo unspecified)
    i | 1.4
> c1ccc(CCn2c(CN3CCOCC3)nc3ccccc32)cc1
    i | -0.28

Bioassay records deposited in PubChem BioAssay by ICCB-Longwood Screening Facility, Harvard Medical School.
